Bioassay records from PubChem BioAssay.
StopGo FLuc: FMDV 2A StopGo reporter, firefly signal | 120,000 tested, 0.23% active | Potency, µM (highest dose often 57.5 µM), for inactives: at the highest dose signal change, negative = less light | HEK cells with a luciferase reporter of 2A StopGo recoding; active = well fitted falling curve with a large enough effect; inconclusive = small, poorly fitted or top-dose-only effect; inactive = no such curve, though single readings can be large or run the other way; note: nearly all actives have a fitted effect of over 60% in size; overnight with compound
StopGo RLuc: FMDV 2A StopGo reporter, Renilla signal | AID 1745857 | 120,000 tested, 0.32% active | HEK cells with a luciferase reporter of 2A StopGo recoding | Potency, µM (series often up to 57.5 µM), inactives show at the top dose signal change, negative = less light; active means well fitted falling curve with a large enough effect; inconclusive means small, poorly fitted or top-dose-only effect; inactive means no such curve, though single readings can be large or run the other way; note: nearly all actives have a fitted effect of over 55% in size; overnight with compound
Active calls of the source: *; ? = inconclusive; [ ] = another dose, or the depositor's remark. % is set by controls: 0 for no effect and ±100 for the full control effect; potency is the fitted concentration of half-maximal effect.

SMILES	StopGo FLuc	StopGo RLuc
Cc1ccc(Cn2cc(C(=O)c3ccc(C)cc3)c(=O)c3ccc(C)nc32)cc1	-2%	2%
COC(=O)NCCc1ccncc1	5%	7%
CCCCC(CC)C(=O)Nc1ccc2ccccc2c1 (stereo not given)	0%	26%
O=C(NCc1ccc2c(c1)OCO2)c1cc2cc(Cl)ccc2[nH]1	55%	63%[activator]
Cc1oc(-c2cccc(Cl)c2)nc1CSCC(=O)O	-10%	-2%
N/C(=N\c1nc2ccccc2o1)NC(=O)c1ccc(-c2ccccc2)cc1	10%	5%
Nc1c(C(=O)c2ccc(F)cc2)sc2nc3c(cc12)CN(Cc1ccccc1)CC3	0%	-1%
C=C(C)COc1ccc2c(C)c(CCC(=O)NCc3ccc(S(N)(=O)=O)cc3)c(=O)oc2c1C	0%	0%
CCCCOc1ccc(C2=NC(c3cccs3)=Nc3ccc(OC)cc3N2)cc1	90%[activator]	19%
CCCc1noc(-c2ccc(N3CCCCC3)c([N+](=O)[O-])c2)n1	-48%	5%
O=C(Nc1ccccc1)c1cc(-c2cccnc2)nc2ccccc12	0%	-1%
COc1cccc(NC(=O)C(Sc2nnc(-c3ccco3)n2N)c2ccccc2)c1 (stereo not given)	12%	66%[activator]
CC(C)(C)C(=O)OCc1cc(=O)n2nc(C3CC3)sc2n1	10%	-3%
Cc1ccc2nc(C)cc(C(=O)NCCCOC(C)C)c2c1	-1%	-3%
COc1ccc(Br)cc1Cn1nnc(C(=O)Nc2cc(C)ccc2OC)c1N	-7%	-2%
COc1ccc(-n2nc(C)c3c(C(F)(F)F)cc(-c4cccnc4)nc32)cc1	-15%	-8%
O=C(CCC(=O)N1Cc2ccccc2Oc2ncccc21)NCc1ccccc1Cl	0%	-13%
O=c1c2[nH]c3ccccc3c2nc(SCc2cccc(F)c2)n1-c1ccccc1	-12%	-12%
CC(C)NC(=O)C(=O)c1c(-c2ccccc2)[nH]c2ccccc12	14%	33%[activator]
N#Cc1c(N)sc2c1CCCCCCCCCC2	-8%	-1%
CCc1cccc(NC(=O)CCN2C(=O)c3ccccc3Sc3ncccc32)c1	16%	-10%
COc1ccc(NC(=O)CCn2nc(-c3ccccc3)c3ccccc3c2=O)cc1C(N)=O	4%	6%
COc1ccc(NC(=O)CC2C(=O)N(c3ccc(F)cc3)C(=O)N2Cc2ccco2)cc1 (stereo not given)	-21%	-4%
CCc1ccc(C(=O)Nc2sc(C)c(C)c2C#N)s1	117%[activator]	-8%
CC(C)N1CCc2nc(SCC(=O)Nc3cccc(F)c3)[nH]c(=O)c2C1	-3%	-5%

Following part
SMILES	StopGo FLuc	StopGo RLuc
Cn1nc(-c2ccccc2)c(-c2ccccc2)c(C(=O)Nc2ccccc2C(N)=O)c1=O	-23%	58%[activator]
CS(=O)(=O)c1ccc(F)c(NCc2ccccc2F)c1	14%	17%
CCN1C(SCc2ccccc2C)=NS(=O)(=O)c2ccccc21	-14%	52%[activator]
CCOc1ccccc1N(CC)C(=O)Cn1ncc2c1-c1ccccc1OC2	-1%	14%
Cc1cccc(OCCOC(=O)c2n[nH]c(=O)c3ccccc23)c1	20%	4%
CCC(C)NC(=O)CCc1c(C)nc2nc(-c3cc(OC)cc(OC)c3)nn2c1C (stereo not given)	-22%	-6%
Cc1ccc2[nH]cc(C(C(=O)O)N3CCN(Cc4cccc5ccccc45)CC3)c2c1 (stereo not given)	-19%	-23%
COc1cc(OC)c(C2=NOC(C(=O)NCCc3ccccc3)C2)cc1Cl (stereo not given)	-2%	16%
CC1CCN(S(=O)(=O)c2ccc(C(=O)Nc3nc4ccc(F)cc4s3)cc2)CC1	-26%	-20%
CCC(CC)CN(CC(=O)NC(N)=O)CC(=O)OC	-3%	8%
COC(=O)c1ccc(NC(=O)C(NC(=O)c2ccc(OC)cc2)C(C)C)c(C)c1 (stereo not given)	35%[activator]	15%
COc1ccc(CCNC(=O)c2ccc3c(c2)ncn3-c2ccc(C)cc2C)cc1OC	-29%	22%
O=C(CNc1ccc(Br)cc1)N1CCNC1=O	0%	2%
COc1ccc(OC)c(S(=O)(=O)Nc2ccc(-c3ccc(N4CCOCC4)nn3)cc2)c1	42%[activator]	267%[activator]
Cc1ccc(C(C)NC(=O)C2CCCO2)cc1 (stereo not given)	-2%	-1%
CCOc1ccc2c(c1)c(=O)c(C(=O)c1ccc(CC)cc1)cn2CC(=O)Nc1ccccc1C	-13%	-7%
O=C(NCC(=O)N(Cc1cccs1)C1(C(=O)NC2CCCC2)CCCCC1)c1ccccc1	-10%	54%[activator]
COc1ccc(Cn2cc(C(=O)c3ccc(F)cc3)c(=O)c3cc4c(cc32)OCCO4)cc1	0%	-11%
CCN1C(=O)CCc2cc(NC(=O)c3cc(OC)cc(OC)c3)ccc21	0%	71%[activator]
COc1cc(NC(=O)c2cc3c(=O)n(Cc4ccco4)ccc3nc2C)cc(OC)c1OC	-18%	1%
Cc1cccc(Nc2nnc(-c3ccc(C)c(S(=O)(=O)N4CCN(C)CC4)c3)c3ccccc23)c1	-15%	9%
CCOC(=O)c1c(C)[nH]c(C)c1S(=O)(=O)N1CCCC(C(=O)N2CCN(c3ccccc3)CC2)C1 (stereo not given)	-6%	41%[activator]
CCc1cccc(NC(=O)Cn2c(=O)n(Cc3ccccc3)c(=O)c3c2c2cc(OC)ccc2n3C)c1	-4%	-7%
COc1ccc(C(=O)NCC(c2cccnc2)N2CCc3ccccc3C2)cc1 (stereo not given)	-19%	?
CCCCNC(=S)Nc1ccccc1Cl	40%[activator]	114%[activator]

Grouped by structure, the entries above with two or more sulfur atoms.
SMILES	StopGo FLuc	StopGo RLuc
CCc1ccc(C(=O)Nc2sc(C)c(C)c2C#N)s1	117%[activator]	-8%
CCN1C(SCc2ccccc2C)=NS(=O)(=O)c2ccccc21	-14%	52%[activator]
CC1CCN(S(=O)(=O)c2ccc(C(=O)Nc3nc4ccc(F)cc4s3)cc2)CC1	-26%	-20%

(further entries)
SMILES	StopGo FLuc	StopGo RLuc
CCn1ccc2cc(S(=O)(=O)N3CCC(C(=O)NCc4ccc(OC)cc4)CC3)ccc21	-11%	46%[activator]
COc1cc(Cl)c(C)cc1-n1cc(C(=O)c2cc(C)ccc2O)cc(C#N)c1=O	-24%	6%
O=Cc1ccc(-c2cc(Cl)c(Cl)cc2Cl)o1	14%	2%
COC(=O)c1cc(NC(=O)C(CC(C)C)NC(=O)c2ccccc2C)cc(C(=O)OC)c1 (stereo not given)	24%	-8%[1.06 µM]
CCOc1ccc(C2C3=C(CCCC3=O)Nc3nc(-c4ccc(Cl)cc4)nn32)cc1 (stereo not given)	0%	24%
N#Cc1ccccc1O	25%	1%
C#CC1(O)CC(C)(C)NC(C)(C)C1	-5%	-6%
CCOc1cccc(CNC(=O)c2ccc(N3CCCC3)c(NC(=O)NCc3ccccc3)c2)c1	-26%	30%
O=C(CSc1nccn1Cc1ccc(Cl)cc1)NCc1ccccc1	18%	1%
CCN(CC)C(=O)Oc1ccc2c(=O)c(-c3ccc(OC)cc3)c(C(F)(F)F)oc2c1	-1%	-12%
c1cncc(-c2nc(Oc3cccc4ccccc34)c3ccccc3n2)c1	11%	4%
O=C(COc1ccccc1)Nc1cccc(-c2cn3cccnc3n2)c1	22%	-7%
COc1ccccc1N1CCN(C(=O)CSc2nc3ccccc3nc2Cc2ccc(C)cc2)CC1	-11%	-3%
COc1ccc(C2C(C(C)=O)=C(O)C(=O)N2c2ccccc2)c(OC)c1 (stereo not given)	81%[activator]	66%[activator]
Nc1nc(Nc2ccc(Cl)cc2)nc(-c2cc3ccccc3o2)n1	207%[activator]	4%
O=[N+]([O-])c1cc(S(=O)(=O)Nc2ccccc2)ccc1N/N=C/c1cn(-c2ccccc2)nc1-c1ccccc1	-2%	34%[activator]
C[N+]1(CC#Cc2ccccc2)CCC(c2ccccc2)(c2ccccc2)CC1	-16%	-22%
CCCCOCCCNC(=O)Cn1nc(C)c2ccccc2c1=O	80%[activator]	-3%
COc1ccc(N2CCN(C(=O)CS(=O)(=O)c3cccc4nsnc34)CC2)cc1	14%	2%
COC(=O)CCn1c(SC(C)C(=O)c2ccc(F)cc2)nc2ccccc2c1=O (stereo not given)	3%	-5%
O=S(=O)(NCc1ccnc(N2CCN(c3ccc(F)cc3)CC2)c1)N1CCCCC1	?	?
Cc1nc2sccn2c(=O)c1S(=O)(=O)Nc1ccc(N2CCN(S(C)(=O)=O)CC2)cc1	11%	7%
COc1ccc(C(=O)Nc2cc3cc(Cl)ccc3oc2=O)cc1OC	0%	-13%
CCOc1ccc(-n2c(SCC(=O)NC3CCCCC3)nc3c([nH]c4ccccc43)c2=O)cc1	-16%	-10%
CCOc1ccc(NC(=O)c2nn(CC)c(=O)c3ccccc23)cc1OCC	23%	22%

Part of the list above in order of molecular weight, descending.
SMILES	StopGo FLuc	StopGo RLuc
O=[N+]([O-])c1cc(S(=O)(=O)Nc2ccccc2)ccc1N/N=C/c1cn(-c2ccccc2)nc1-c1ccccc1	-2%	34%[activator]
CCn1ccc2cc(S(=O)(=O)N3CCC(C(=O)NCc4ccc(OC)cc4)CC3)ccc21	-11%	46%[activator]
CCCCOCCCNC(=O)Cn1nc(C)c2ccccc2c1=O	80%[activator]	-3%

For reference, five of the compounds above:
SMILES	StopGo FLuc	StopGo RLuc
COC(=O)CCn1c(SC(C)C(=O)c2ccc(F)cc2)nc2ccccc2c1=O (stereo not given)	3%	-5%
O=S(=O)(NCc1ccnc(N2CCN(c3ccc(F)cc3)CC2)c1)N1CCCCC1	?	?
Cc1nc2sccn2c(=O)c1S(=O)(=O)Nc1ccc(N2CCN(S(C)(=O)=O)CC2)cc1	11%	7%
COc1ccc(C(=O)Nc2cc3cc(Cl)ccc3oc2=O)cc1OC	0%	-13%
CCOc1ccc(-n2c(SCC(=O)NC3CCCCC3)nc3c([nH]c4ccccc43)c2=O)cc1	-16%	-10%

Further compounds.
SMILES	StopGo FLuc	StopGo RLuc
CC(=O)c1ccc(NC(=O)CSc2nnc3ccc(-c4ccc(Cl)cc4)nn23)cc1	-14%	-5%
O=C(O)CCn1c(=O)c2cccn2c2cccnc21	16%	-6%
COc1cc(OC)c(NC(=O)N2CCc3cc(S(=O)(=O)N4CCC(C)CC4)ccc32)cc1Cl	-3%	-5%
COc1ccc(CNC(=O)Cc2c(C(=O)O)c(C)cn2C)cc1	-10%	-6%
CCCC(C)NC(=O)c1c(C)c(-c2cccc(Cl)c2)nc2ccccc12 (stereo not given)	-2%	15%
Cc1ccccc1C1C2=C(CC(C)(C)CC2=O)Nc2nc(N)[nH]c(=O)c21 (stereo not given)	6%	-3%
Cc1sccc1Br	-18%	-16%
CCOC(=O)c1c(C)sc(-c2c(-c3ccc4c(c3)OCCO4)[nH]c3c2c(=O)n(C)c(=O)n3C)c1O	-12%	-6%
Cc1ccc(C(=O)c2cc3ccccc3o2)c(C)c1	257%[activator]	37%[activator]
COc1ccc(NC(=O)c2cc(C3CC3)nc3c2c(C)nn3-c2ccc(C)cc2)cc1OC	-4%	-4%
COCCn1c(SCC(=O)c2c[nH]c3ccccc23)nc2cc(C(=O)NCC(C)C)ccc2c1=O	-23%	-20%
O=C(NCCc1ccc(C(F)(F)F)cc1)c1cccc2ncccc12	3%	-6%
Cc1ccc(S(=O)(=O)CC(=O)Nc2sc3c(c2C(N)=O)CCCC3)cc1	-9%	27%

The list is partial; count on the stated rates, not on these rows.
